Screening results from PubChem.
NR2F2 inh = inhibitors of human COUP-TFII (NR2F2). AID 686940. HEK293T NGFI-A luciferase reporter, luminescence. inhibition, % at 8.6 µM. 370,000 compounds, 0.7% hits;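 active means inhibition above a per-plate cutoff, mean inhibition of test wells between control levels plus 3 SD, cut at about 38% in these data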;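 further: cells cotransfected with COUP-TFII expression vector driving the NGFI-A reporter; 0% = median of COUP-TF2 test wells and 100% = reporter-only cells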
SRC1 inh = human NCOA1 inhibition; Q15788; HEK293 GAL4-SRC1 luciferase reporter, luminescence; inhibition, % at 3.6 µM; 360,000 compounds, 0.12% hits;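 active means inhibition above the campaign mean plus 3 SD, with each screening campaign given its own cutoff, cut at about 60% in these data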;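 further: 0% = DMSO treated cells and 100% = gossypol at 36 µM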
An asterisk follows results filed as active; nt = not tested or not shown; & = joins results of further samples.

COc1cccc(N2CCN(CC(=O)Nc3ccc(-n4cnnn4)cc3)CC2)c1
  NR2F2 inh: 5	SRC1 inh: 4
COc1ccccc1C(=O)NNC(=S)NC(=O)c1ccco1
  NR2F2 inh: 6	SRC1 inh: -3
Cc1ccccc1C(=O)N/N=C/c1ccc(Sc2ccccn2)o1
  NR2F2 inh: 6	SRC1 inh: 9
CN[C@H]1CC[C@@H](c2ccc(Cl)c(Cl)c2)c2ccccc21
  NR2F2 inh: 1&6	SRC1 inh: -6&0
Cc1nn(-c2ccccc2)c(Cl)c1/C=N/NC(=O)c1ccncc1
  NR2F2 inh: -15	SRC1 inh: 9
CC(=O)Nc1ccc(Oc2ncccn2)cc1
  NR2F2 inh: -7	SRC1 inh: -6
O=C1NC(=S)SC1=Cc1ccccn1
  NR2F2 inh: -7	SRC1 inh: 3
CN(C)C(=O)c1cccc(COc2ccc(N3C(N)=NC(N)=NC3(C)C)cc2Cl)c1
  NR2F2 inh: -11	SRC1 inh: 36
COc1cccc(C(=O)Nc2cc3c(cc2N2CCCC2)n(C)c(=O)n3C)c1
  NR2F2 inh: -6	SRC1 inh: 11
CCOC(=O)c1c(C)oc2ccc(O)cc12
  NR2F2 inh: -14	SRC1 inh: -4
Cc1ccc(C2=NN(C(=O)CCl)C(c3ccco3)C2)o1 (stereo not given)
  NR2F2 inh: 4	SRC1 inh: 21
O=C(O)c1cccnc1SCc1ccccc1
  NR2F2 inh: nt	SRC1 inh: 0

Reprinted at random: 5 records from the list.
CN(C)C(=O)c1cccc(COc2ccc(N3C(N)=NC(N)=NC3(C)C)cc2Cl)c1
  NR2F2 inh: -11	SRC1 inh: 36
COc1cccc(C(=O)Nc2cc3c(cc2N2CCCC2)n(C)c(=O)n3C)c1
  NR2F2 inh: -6	SRC1 inh: 11
COc1ccccc1C(=O)NNC(=S)NC(=O)c1ccco1
  NR2F2 inh: 6	SRC1 inh: -3
O=C1NC(=S)SC1=Cc1ccccn1
  NR2F2 inh: -7	SRC1 inh: 3
Cc1ccc(C2=NN(C(=O)CCl)C(c3ccco3)C2)o1 (stereo not given)
  NR2F2 inh: 4	SRC1 inh: 21

Not all compounds are listed, and most or all hits are left out here.
